Screening results from PubChem.
T cruzi inh – blocks replication of Trypanosoma cruzi | T. cruzi beta-gal in NIH3T3, luminescence, 90 h | inhibition, % (test concentration not listed) | 300,000 compounds, 1.4% hits | AID 1885;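 active means mean inhibition across valid replicates above about 55%, limit read from the data; inconclusive means mean below that limit but half or more replicates reach it; inactive means mean below it, under half of replicates reach it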;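 further: signal also drops with host cell toxicity which is not excluded here; 0% = plate median of DMSO wells and 100% = zero luminescence signal; higher percent means less beta-gal luminescence so fewer parasites; stock transfer was 50 nL into about 50 µL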
A1 inh – inhibitors of the anti-apoptotic protein A1, read as caspase activation | MEF A1-2A-BIM cells, Caspase-Glo 3/7 luminescence, 3 h; percent of clofoctol response, vehicle zero | caspase activation, % (concentration not given with the values) | AID 2462 | 330,000 compounds, 0.066% hits;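 active means over half of replicate activation scores above 10%, or exactly half above 10 with the replicate mean above 10; inconclusive means replicate mean below 10 yet half the replicates above 10; inactive means over half of replicates below 10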;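 further: wells of about 30 µL received 50 nL stock; many hits fall short of the cut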
rRNA inh HTS – inhibitors of bacterial rRNA selective over humanized ribosomes; E. coli WT GFP vs humanized-ribosome RFP mutants, fluorescence, 24 h; stronger effect = lower value; DMSO median 0, no signal -100; GFP signal change (wild-type ribosome), % (concentration not given with the values); 350,000 compounds, 1.6% hits;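 active means significant combined selectivity score with lowered wild-type GFP, culture density cut under 30%, mutant RFP and density less affected; inactive means any of these conditions unmet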; further: one replicate is shown; some compounds called inactive have numbers as strong as hits
Calb FLC – C. albicans growth modulation with fluconazole | C. albicans CaCi-2 (fluconazole-resistant clinical isolate) + fluconazole, Alamar Blue growth, 48 h | growth inhibition, % (no concentration beside the values) | 300,000 compounds, 0.57% hits;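 active means most replicates above 75%; inconclusive means exactly half above 75%; inactive means most below 75%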;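 further: all wells also contain fluconazole at 8 µg/ml as a sub-toxic cotreatment; 0% = median of DMSO wells and 100% = median of geldanamycin control wells; wells of about 8 µL received 7.5 nL stock; the first replicate is given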
RanGTP-Imp inh – disruptors of Ran-importin-beta complex formation – biochemical, FRET, CFP-Ran, YFP-importin-beta, homogeneous, primary screen; cell-free CFP-Ran/YFP-importin-beta FRET ratio; inhibition, % (concentration not given with the values); 300,000 compounds, 1.1% hits;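 active means most replicates above 15%; inconclusive means exactly half above 15%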;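 further: 0% = DMSO wells and 100% = Ran loaded with GDP instead of GTP; wells of about 40 µL received 100 nL stock; the first replicate is given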
MLL AF4-AF9 inh – blocks AF4 peptide binding to human AF9. P42568. AlphaScreen, biotin-AF4 peptide binding to FLAG-AF9. inhibition, % at 10 µM. 350,000 compounds, 0.47% hits. AID 651704;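 active means every replicate reaching a set inhibition limit, whatever the replicate mean, cut at about 25% in these data; inconclusive means mean inhibition reaches that limit but some replicates miss it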;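 further: 0% = plate neutral control median and 100% = total signal loss; the record names both 10 and 1 µM as test concentration; the first replicate is given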
Target sequence (P42568 whole entry, looked up): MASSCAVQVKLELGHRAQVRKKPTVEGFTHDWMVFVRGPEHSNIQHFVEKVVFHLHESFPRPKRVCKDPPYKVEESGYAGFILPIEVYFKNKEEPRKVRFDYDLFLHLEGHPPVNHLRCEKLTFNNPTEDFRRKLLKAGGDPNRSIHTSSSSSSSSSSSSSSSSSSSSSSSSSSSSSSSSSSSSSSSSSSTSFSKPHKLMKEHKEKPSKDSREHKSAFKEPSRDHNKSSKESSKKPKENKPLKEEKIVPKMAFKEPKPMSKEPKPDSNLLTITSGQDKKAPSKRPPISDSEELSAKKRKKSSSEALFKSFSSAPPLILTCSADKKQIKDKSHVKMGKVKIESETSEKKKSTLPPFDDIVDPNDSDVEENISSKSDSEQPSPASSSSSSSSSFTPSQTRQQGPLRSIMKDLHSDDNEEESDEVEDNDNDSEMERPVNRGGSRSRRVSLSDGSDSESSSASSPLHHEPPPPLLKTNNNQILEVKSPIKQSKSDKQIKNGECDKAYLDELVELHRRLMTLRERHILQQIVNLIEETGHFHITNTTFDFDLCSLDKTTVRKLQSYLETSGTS
Beta cell apopt – beta cell apoptosis inhibition | INS-1E cytokine-induced death, ATP luminescence, 48 h; percent of positive-control rescue, neutral wells zero | protection from apoptosis, % (test concentration not listed) | 300,000 compounds, 0.8% hits | AID 435005;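 active means all replicates at 75% or more, or half of them and the mean; inconclusive means half reach 75% but not the mean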;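 further: 0% = cytokine-treated negative control wells and 100% = positive control rescue; higher means more ATP so stronger rescue from cytokine killing; wells of about 40 µL received 100 nL stock; the first replicate is given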
Vif TR-FRET – HIV-1 Vif–A3G interaction blockers – biochemical, TR-FRET, GST-Vif 1-94, biotin-A3G peptide, dose response retest, primary screen (AID 1117319). 260,000 compounds, 0.57% hits. TR-FRET GST-Vif / biotin-A3G peptide binding; higher % means a stronger effect; test concentration not given here; strong numbers were not always called active. inhibition, %; hits with a dose series show IC50 in µM;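 active means above the screen mean plus three standard deviations and confirmed in dose response; inconclusive means results disagree or hit not tested in dose response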;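 further: Vif residues 1-94 fused to GST binding biotinylated APOBEC3G peptide 110-148; 0% = full assay without inhibitor and 100% = GST in place of GST-Vif; retest series ran down from 100 µM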
rRNA inh HTS OD600 – second read-out of rRNA inh HTS, no call of its own (marks repeat the call); OD600 change, %; measured here: OD600 growth;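 optical density of the mix in the first replicate; 0 = DMSO median and -100 = no signal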
rRNA inh HTS RFP – recorded beside rRNA inh HTS, whose call it bears; RFP signal change, %; measured here: RFP humanized mutant strains;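 first replicate; 0 = DMSO median and -100 = no signal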
* hit, by the source's call; & = joins results of further samples. A portion of the library; count on the stated rates, not on these rows.

How did COc1cc2c(cc1OC)CN(c1nc(CN3CCCC3)nc3sc(C)c(C)c13)CC2 do in these assays?
T cruzi inh: 69*; A1 inh: -2.2; rRNA inh HTS: -2; Calb FLC: -8; RanGTP-Imp inh: 3.8; MLL AF4-AF9 inh: 17; Beta cell apopt: 2; rRNA inh HTS OD600: 3; rRNA inh HTS RFP: 20

What do the screens show for `Cc1ccc(C)c(S(=O)(=O)N2CCCOC2CNC(=O)C(=O)NCc2ccco2)c1` (stereo unspecified)?
T cruzi inh: -9; A1 inh: 0.4; Calb FLC: -2; RanGTP-Imp inh: 1.7; Beta cell apopt: -14; Vif TR-FRET: 29%

What do the screens show for `Cc1nn(CC(=O)Nc2ccc(C(=O)N(C)C)cc2)c(=O)c2ccccc12`?
T cruzi inh: 4; A1 inh: -0.2; Calb FLC: 13; RanGTP-Imp inh: -2.3; Beta cell apopt: -2; Vif TR-FRET: 0%

How did COc1ccc2c(=O)c(-c3ccccc3)c(C)oc2c1 do in these assays?
T cruzi inh: -5; A1 inh: -1.1; Calb FLC: -20; RanGTP-Imp inh: -4.2; Beta cell apopt: -2; Vif TR-FRET: 3%

Results for COc1ccccc1N1CCN(C(=O)c2cc(S(=O)(=O)N3CCCCC3)ccc2C)CC1 ?
A1 inh: 1.5; rRNA inh HTS: -9; MLL AF4-AF9 inh: 3.6; Beta cell apopt: -1; Vif TR-FRET: -2%; rRNA inh HTS OD600: -16; rRNA inh HTS RFP: 9.8

How did COc1ccc(-n2nnnc2SCC(=O)c2ccc(O)c(O)c2)cc1 do in these assays?
T cruzi inh: -25; A1 inh: -0.1; Calb FLC: -5; RanGTP-Imp inh: -3.7; Beta cell apopt: -20; Vif TR-FRET: 9%

What do the screens show for `C=CCn1cc(C(=O)N2CCN(c3ccccc3)CC2)c(=O)c2cc(S(=O)(=O)N3CCCC3)ccc21`?
T cruzi inh: 12; A1 inh: -0.4; rRNA inh HTS: -2; Calb FLC: 1; RanGTP-Imp inh: inconclusive; MLL AF4-AF9 inh: 0.3; Beta cell apopt: 1; Vif TR-FRET: 1%; rRNA inh HTS OD600: 5; rRNA inh HTS RFP: 1.6

Results for CN1Cc2c(N3CCOCC3)nc3sc(C#N)c(N)c3c2CC1(C)C ?
T cruzi inh: 10; A1 inh: 0.3; rRNA inh HTS: -15; Calb FLC: -3; RanGTP-Imp inh: -0.1; MLL AF4-AF9 inh: 4.8; Beta cell apopt: 8; Vif TR-FRET: 10%; rRNA inh HTS OD600: -6; rRNA inh HTS RFP: -1.2

Results for Cc1ccccc1OCCC(=O)OCC(=O)NCCc1ccccc1 ?
T cruzi inh: -10; A1 inh: 0.0; rRNA inh HTS: -4; Calb FLC: 4; RanGTP-Imp inh: -4.3; MLL AF4-AF9 inh: -1.6; Beta cell apopt: -1; Vif TR-FRET: -5%; rRNA inh HTS OD600: -5; rRNA inh HTS RFP: 2.3

How did Cc1cccc(N2CCN(C(=O)C3CC(=O)N(c4ccc5c(c4)OCCO5)C3)CC2C)c1 (stereo unspecified) do in these assays?
A1 inh: 0.3; rRNA inh HTS: -6; MLL AF4-AF9 inh: 3.7; Beta cell apopt: -5; Vif TR-FRET: 14%; rRNA inh HTS OD600: -11; rRNA inh HTS RFP: -0.2

What do the screens show for `CCCOc1ccc(N2CC(C(=O)Nc3ccccc3F)CC2=O)cc1` (stereo unspecified)?
T cruzi inh: 1; A1 inh: 0.0; Calb FLC: -17; RanGTP-Imp inh: -4.8; Beta cell apopt: 0; Vif TR-FRET: -1%

How did Cc1cccc(Nc2nc(-c3cccs3)cs2)n1 do in these assays?
T cruzi inh: 19; A1 inh: -6.9; Calb FLC: -21; RanGTP-Imp inh: -1.0; Beta cell apopt: 4; Vif TR-FRET: 9%

What do the screens show for `Cc1cccc2cc(CN(Cc3cccnc3)C(=O)c3cccs3)c3nnnn3c12`?
T cruzi inh: 31; A1 inh: 1.0; Calb FLC: -9; RanGTP-Imp inh: 0.4; Beta cell apopt: -6; Vif TR-FRET: 2%

What do the screens show for `O=S(=O)(c1cnc[nH]1)N1CCN(c2ccc(F)cc2)CC1`?
T cruzi inh: -3; A1 inh: -0.1; rRNA inh HTS: 6; Calb FLC: -3; RanGTP-Imp inh: 0.4; MLL AF4-AF9 inh: -12; Beta cell apopt: -1; rRNA inh HTS OD600: 7; rRNA inh HTS RFP: -5.6

Results for Cc1ccc(C(=O)NCCC2=CCCCC2)cc1S(=O)(=O)N1CCCCC1 ?
T cruzi inh: 22; A1 inh: 0.0; rRNA inh HTS: -17; Calb FLC: 3; RanGTP-Imp inh: 8.6; MLL AF4-AF9 inh: 5.1; Beta cell apopt: 2; Vif TR-FRET: 2%; rRNA inh HTS OD600: -35; rRNA inh HTS RFP: -0.9

Quoted at random: 3 records from the list
What do the screens show for `CCCOc1ccc(N2CC(C(=O)Nc3ccccc3F)CC2=O)cc1` (stereo unspecified)?
T cruzi inh: 1; A1 inh: 0.0; Calb FLC: -17; RanGTP-Imp inh: -4.8; Beta cell apopt: 0; Vif TR-FRET: -1%

Results for Cc1ccccc1OCCC(=O)OCC(=O)NCCc1ccccc1 ?
T cruzi inh: -10; A1 inh: 0.0; rRNA inh HTS: -4; Calb FLC: 4; RanGTP-Imp inh: -4.3; MLL AF4-AF9 inh: -1.6; Beta cell apopt: -1; Vif TR-FRET: -5%; rRNA inh HTS OD600: -5; rRNA inh HTS RFP: 2.3

Results for COc1ccccc1N1CCN(C(=O)c2cc(S(=O)(=O)N3CCCCC3)ccc2C)CC1 ?
A1 inh: 1.5; rRNA inh HTS: -9; MLL AF4-AF9 inh: 3.6; Beta cell apopt: -1; Vif TR-FRET: -2%; rRNA inh HTS OD600: -16; rRNA inh HTS RFP: 9.8

Carrying on:
How did CCn1cc(C2=NCCO2)c2ccccc21 do in these assays?
T cruzi inh: -8; A1 inh: 0.2; rRNA inh HTS: -2; Calb FLC: 6; RanGTP-Imp inh: 6.0; MLL AF4-AF9 inh: 0.8; Beta cell apopt: 3; Vif TR-FRET: 8%; rRNA inh HTS OD600: 6; rRNA inh HTS RFP: -1.9

Results for Cc1cc(C)c(S(=O)(=O)N2CCOC2CNC(=O)C(=O)NCc2cccnc2)c(C)c1 (stereo unspecified) ?
T cruzi inh: 0; A1 inh: -0.1; rRNA inh HTS: 3; Calb FLC: inconclusive; RanGTP-Imp inh: 0.8; MLL AF4-AF9 inh: 0.7; Beta cell apopt: -5; Vif TR-FRET: 2%; rRNA inh HTS OD600: 3; rRNA inh HTS RFP: 1.9

Results for CSc1nc(C)c2c(n1)N(c1ccc(C(F)(F)F)cc1)CC2 ?
T cruzi inh: -17; A1 inh: 0.6; Calb FLC: -3; RanGTP-Imp inh: -1.6; Beta cell apopt: -7; Vif TR-FRET: 8%

How did Oc1c(Cl)cc(Cl)cc1C=Nc1ccc(N2CCOCC2)cc1 do in these assays?
T cruzi inh: 4; A1 inh: -0.6; rRNA inh HTS: 17; Calb FLC: -17; RanGTP-Imp inh: -6.8; MLL AF4-AF9 inh: -0.5; Beta cell apopt: -3; Vif TR-FRET: -3%; rRNA inh HTS OD600: 24; rRNA inh HTS RFP: 7.6

How did COC(=O)c1ccc(Cn2nnc3ccccc3c2=O)o1 do in these assays?
T cruzi inh: -4; A1 inh: -0.8; Calb FLC: -3; RanGTP-Imp inh: -3.6; Beta cell apopt: -3; Vif TR-FRET: 4%

Results for CSCCNC(=O)c1cccc(Cl)c1 ?
T cruzi inh: -10; A1 inh: 0.4; rRNA inh HTS: 6; Calb FLC: -2; RanGTP-Imp inh: -3.5; MLL AF4-AF9 inh: 0.0; Beta cell apopt: 1; rRNA inh HTS OD600: 8; rRNA inh HTS RFP: -4.4

Results for CC(=O)/C(=N/Nc1cccc(Cl)c1)N1CCOCC1 ?
T cruzi inh: 14; A1 inh: 0.8; Calb FLC: -23; RanGTP-Imp inh: -1.3; Beta cell apopt: -4; Vif TR-FRET: -6%

Results for CCN(CC)S(=O)(=O)c1ccc(N2CCOCC2)c(NC(=O)CCOc2ccccc2)c1 ?
T cruzi inh: -22; A1 inh: -0.2; rRNA inh HTS: 2; Calb FLC: -13; RanGTP-Imp inh: 0.9; MLL AF4-AF9 inh: -28; Beta cell apopt: 2; rRNA inh HTS OD600: -8; rRNA inh HTS RFP: 0.4

How did COCCN(C(=O)COC(=O)C1(C)CC1(Cl)Cl)c1c(N)n(Cc2ccccc2)c(=O)[nH]c1=O (stereo unspecified) do in these assays?
T cruzi inh: 3; A1 inh: -0.3; rRNA inh HTS: 10; Calb FLC: 4; RanGTP-Imp inh: -1.9; MLL AF4-AF9 inh: 1.2; Beta cell apopt: -1; Vif TR-FRET: -3%; rRNA inh HTS OD600: 5; rRNA inh HTS RFP: 1.7

How did COc1ccccc1N(CC(O)CN1CCCC1)S(=O)(=O)c1ccccc1 (stereo unspecified) do in these assays?
T cruzi inh: 11; A1 inh: 0.6; rRNA inh HTS: -1; Calb FLC: -4; RanGTP-Imp inh: -1.6; MLL AF4-AF9 inh: -3.8; Beta cell apopt: -6; rRNA inh HTS OD600: 4; rRNA inh HTS RFP: 2.4

Results for CC12CCC(C(=O)NCc3ccc(Cl)cc3)(OC1=O)C2(C)C (stereo unspecified) ?
T cruzi inh: -11; A1 inh: 0.8; Calb FLC: -5; RanGTP-Imp inh: -1.0; Beta cell apopt: 0; Vif TR-FRET: 16%

What do the screens show for `Cc1ccc2oc(=O)c3cnn(CC(=O)N4CCCCCC4)c3c2c1`?
T cruzi inh: -6; A1 inh: 0.7; rRNA inh HTS: 0; Calb FLC: 4; RanGTP-Imp inh: -4.3; MLL AF4-AF9 inh: 3.3; Beta cell apopt: 0; Vif TR-FRET: -6%; rRNA inh HTS OD600: -4; rRNA inh HTS RFP: -4.0

What do the screens show for `CCCc1cc(=O)[nH]c(SC(C)C(=O)N2c3ccccc3CC2C)n1` (stereo unspecified)?
A1 inh: -1.9; rRNA inh HTS: -17; MLL AF4-AF9 inh: 1.4; Beta cell apopt: -6; Vif TR-FRET: 0%; rRNA inh HTS OD600: -26; rRNA inh HTS RFP: -3.3

How did CCOC(=O)N1CCN(C(=O)c2cn(CC)c3ccc(S(=O)(=O)N4CCCC4)cc3c2=O)CC1 do in these assays?
T cruzi inh: -9; A1 inh: 0.3; rRNA inh HTS: 3; Calb FLC: -4; RanGTP-Imp inh: 3.3; Beta cell apopt: 7; Vif TR-FRET: -6%&-3%; rRNA inh HTS OD600: 9; rRNA inh HTS RFP: 2.7
